Screens from PubChem BioAssay.
TNAP activators = human TNAP enzyme activators, primary screen, biochemical, luminescent, no phosphate acceptor, uHTS (AID 1001). actives 0.03% (n = 200,000). activation fold at 20 µM; hits with a dose series show EC50 in µM. purified TNAP, luminescent activation assay, no phosphate acceptor; higher activation fold means a stronger effect; in the data active = activation fold from about 3, or a potency from the dose series; inactive = the rest, 99 in 100 with activation fold below about 1.6; also: many of its hits are not listed in these tables
NTR1 agonist = agonists of NTR1, primary screen, imaging, U2OS cells, beta-arrestin-GFP, high content (AID 493036). actives 0.17% (n = 330,000). activation, % at 20 µM. NTR1-U2OS beta-arrestin-GFP spot imaging, agonist mode. P30989;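 active = activation at or above 40% of the spot to cytoplasm intensity ratio, with at least 20 cells analyzed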;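 also: 0% = DMSO without peptide and 100% = 100 nM NTR1 peptide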
Target sequence (P30989 whole entry, looked up): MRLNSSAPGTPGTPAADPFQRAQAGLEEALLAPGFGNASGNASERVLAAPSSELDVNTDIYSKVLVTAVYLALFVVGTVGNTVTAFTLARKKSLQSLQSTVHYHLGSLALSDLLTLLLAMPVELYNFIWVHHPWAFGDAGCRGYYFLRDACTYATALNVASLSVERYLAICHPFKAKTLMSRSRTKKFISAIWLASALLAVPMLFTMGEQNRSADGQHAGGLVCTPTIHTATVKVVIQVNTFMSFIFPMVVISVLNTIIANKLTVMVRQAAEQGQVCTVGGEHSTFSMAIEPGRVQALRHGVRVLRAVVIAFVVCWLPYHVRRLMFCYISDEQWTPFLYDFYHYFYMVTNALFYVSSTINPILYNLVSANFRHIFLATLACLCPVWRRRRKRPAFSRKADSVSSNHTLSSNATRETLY
GPR55 beta-arrestin = selective activators of receptor GPR55 – imaging, U2OS cells, beta-arrestin-GFP redistribution, primary screen (AID 1961). U2OS GPR55 beta-arrestin-GFP redistribution imaging; higher % means a stronger effect. actives 0.048% (n = 290,000). activation, % at 10 µM, or EC50 in µM where a hit was titrated;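 active = activation above 40% with more than 50 cells counted in the well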;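 also: U2OS osteosarcoma cells stably expressing GPR55 and beta-arrestin-GFP; plate controls were DMSO negative control for no effect and LPI positive control for full effect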
Yfh1-depleted yeast = enhancers of respiration in Yfh1-depleted yeast, dose response, Friedreich's ataxia, plus single-dose screen (AID 1465); S. cerevisiae Yfh1-off respiration, WST-1 reduction, 72 h; higher fold induction means a stronger effect; one-dose fold induction at 50 µM; EC50 in µM for titrated hits; actives 0.074% (n = 220,000);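 active = fold induction of absorbance versus untreated yeast above a set limit, then at least 30% activation at any dose in follow-up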;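 also: activators that raise dye reduction in frataxin-depleted yeast; strong numbers were not always called active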
ER stress rescue = protection against thapsigargin-triggered cell killing – 384-well, CSM14.1, ATP luminescence, primary screen (AID 1222); CSM14.1 thapsigargin-induced death rescue, ATP luminescence; higher % means a stronger effect; cellular ATP content (survival), % at 20 µM, or EC50 in µM where a hit was titrated; 190,000 tested, under 10 active;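 active = EC50 below 50 µM in the dose-response confirmation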;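 also: death triggered by thapsigargin at about 15 µM added after 2 h compound pretreatment; cell ATP read after overnight thapsigargin exposure of roughly 18 to 22 hours; normalized against plate controls of thapsigargin alone and 5% DMSO vehicle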
NTR1 agonist cell count 20 µM = also measured in NTR1 agonist; calls as there; cell count; measured here: cell count, cytotoxicity flag
An asterisk follows results filed as active; i = inactive; · = not tested or not shown; & = joins results of further samples. Only part of the results is shown; the hit share may differ from the screen's.

SMILES	TNAP activators	NTR1 agonist	NTR1 agonist cell count 20 µM	GPR55 beta-arrestin	Yfh1-depleted yeast	ER stress rescue
CN(Cc1ccc(F)cc1)S(=O)(=O)c1nnc(NC(=O)c2ccccc2)s1	·	0.6	53	-0.1%	·	·
Cc1ccc(/C=C/c2ccc(N(C)C)cc2)[n+](C)c1	·	-1.3	85	0.0%	·	·
Oc1ccc2c3c1O[C@H]1c4[nH]c5ccccc5c4C[C@@]4(O)[C@@H](C2)N(CC2CC2)CC[C@]314	·	0.3	73	·	·	·
Cc1ccc(O)c(C(=O)c2cc(C#N)c3nc4ccccc4n3c2)c1	1.3	4.7	44	-0.3%	i	·
O=C(Nc1sc2c(c1C(=O)O)CCCC2)c1ccc(Cl)cc1	·	2.6	47	0.3%	·	·
O=C(Cc1ccc(Cl)cc1)Nc1ncc([N+](=O)[O-])s1	1	·	·	0.1%	i	5.9%
C=CCSc1nsc(NC(=O)Nc2ccc(F)cc2)n1	·	23	64	-0.3%	·	·
O=C(N/N=C\c1ccc([N+](=O)[O-])s1)C1COc2ccccc2O1 (stereo unspecified)	·	0.9	62	-0.1%	·	·
CC(=O)Nc1nc(C)c(-c2csc(Nc3cccc([N+](=O)[O-])c3)n2)s1	1.2	3.3	61	-0.1%	i	-1.8%
CCC(C)NC(=O)CCC(=O)OC1O[C@H]2OC3(C)CC[C@H]4[C@H](C)CCC(C1C)C24OO3 (stereo partly specified)	·	·	·	-0.1%	·	·
COc1cc(S(=O)(=O)NCc2ccncc2)ccc1Br	·	-0.2	60	0.2%	·	·
CCN(CC)S(=O)(=O)c1cccc(NC(=O)CNc2cccc(S(=O)(=O)N3CCCC3)c2)c1	·	2.3	61	0.2%	·	·
CC(C)=CCc1c(O)cc2oc3c(CC=C(C)C)c(O)c(O)c(CC=C(C)C)c3c(=O)c2c1O	·	3.9	88	2.7%	i	·
CCOC(=O)c1cncn1[C@@H](C)c1ccccc1	·	-0.9	67	·	·	·
CC(C)(C)c1ccc(CSc2cnn(C(C)(C)C)c(=O)c2Cl)cc1	·	9.9	93	-0.1%	·	·
C=CCn1c(O)c(C=NCCN(C)C)c(=O)[nH]c1=O	1	0.7	48	-0.1%	i	3.1%
CCOc1cc(C=C(C(=O)OC)C(=O)OC)ccc1OCc1ccc([N+](=O)[O-])cc1	0.9	32	40	0.7%	i	-1.4%
CCOC(=O)C(=Cc1ccc(OCc2ccc([N+](=O)[O-])cc2)c(OC)c1)C(=O)OCC	1.1	21	39	30%	i	-1.6%
C=C1C(=O)O[C@@H]2C[C@@H](C)[C@@H]3C4OC4C(=O)[C@@]3(C)[C@@H](O)[C@H]12 (stereo partly specified)	·	14	64	6.4%	i	·
O=c1c2cc(Br)ccc2nc(-c2ccc(Cl)cc2)n1O	·	·	·	0.5%	·	·
O[C@@H]1CCCC[C@H]1N1CCC(c2ccccc2)CC1	0.9&1.1	-2.3	54	0.3%&-0.1%	i	1.1%&-2.3%
CC(=O)OC1C2CCCC1C(N1CCCC1)CC2 (stereo unspecified)	1.1&1.1	1.2&-0.4	40&71	-0.1%&-0.1%	i	-1.5%&-1.4%
COc1ccc(CN2CCNCC2)c(OC)c1OC	·	-1.0&2.2	47&64	0.6%	·	·
CCn1nc(C)c(CNC(=O)c2ccc(OC3CCN(Cc4ccccn4)CC3)cc2)c1C	·	1.7	58	0.2%	·	·
Cc1ccc(C2CC(=O)C(C=NCCN3CCN(C(=O)Cc4ccccc4)CC3)=C(O)C2)cc1 (stereo unspecified)	1.1	0.7	68	-0.1%	i	0.7%

An excerpt of these results, with two lines to a compound:
Below each SMILES – TNAP activators	NTR1 agonist	NTR1 agonist cell count 20 µM	GPR55 beta-arrestin	Yfh1-depleted yeast	ER stress rescue
- CCOC(=O)C(=Cc1ccc(OCc2ccc([N+](=O)[O-])cc2)c(OC)c1)C(=O)OCC
→ 1.1	21	39	30%	i	-1.6%
- C=C1C(=O)O[C@@H]2C[C@@H](C)[C@@H]3C4OC4C(=O)[C@@]3(C)[C@@H](O)[C@H]12 (stereo partly specified)
→ ·	14	64	6.4%	i	·
- O=c1c2cc(Br)ccc2nc(-c2ccc(Cl)cc2)n1O
→ ·	·	·	0.5%	·	·
- O[C@@H]1CCCC[C@H]1N1CCC(c2ccccc2)CC1
→ 0.9&1.1	-2.3	54	0.3%&-0.1%	i	1.1%&-2.3%

Laid out differently: results already given
SMILES | TNAP activators | NTR1 agonist | NTR1 agonist cell count 20 µM | GPR55 beta-arrestin | Yfh1-depleted yeast | ER stress rescue
COc1ccc(CN2CCNCC2)c(OC)c1OC | · | -1.0&2.2 | 47&64 | 0.6% | · | ·
CCn1nc(C)c(CNC(=O)c2ccc(OC3CCN(Cc4ccccn4)CC3)cc2)c1C | · | 1.7 | 58 | 0.2% | · | ·
Cc1ccc(C2CC(=O)C(C=NCCN3CCN(C(=O)Cc4ccccc4)CC3)=C(O)C2)cc1 (stereo unspecified) | 1.1 | 0.7 | 68 | -0.1% | i | 0.7%
